HTT prom inh: Primary qHTS for Identification of Small Molecule Inhibitors of Huntingtin Promoter Activity | HEK293 HTT promoter firefly luciferase reporter (activity 0% = vehicle and -100% = no light), 24 h | Potency, µM (series often up to 57.5 µM), without a hit: at the top dose activity change, negative = inhibition, usual class: inhibitors | 48,000 compounds, 0.93% hits; active = well fitted inhibition curve with a large enough effect; inconclusive = small, poorly fitted or top-dose-only effect; inactive = no such curve, though single readings can be large or run the other way; also: nearly all actives have a fitted effect of over 50% in size
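Firefly luciferase readout (Dual-Glo, 10 min RT) after 24 h, 37 °C compound exposure (final up to 57.5 uM) of HEK293 reporter cells cultured 24 h beforehand; PTC124 at 50 uM final as control inhibitor; activity scaled vehicle 0%, zero RLU -100%.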
PMP22 txn: Cell-based coincidence reporter assay to measure PMP22 gene transcription in S16 Pmp22-F2sN cells - Primary screen; 43,000 compounds, 2% hits; S16 Pmp22-F2sN Schwann cells (luciferase reporters placed in the Pmp22 gene), FLuc/NLuc coincidence luminescence, 24 h; Potency, µM (highest dose often 57.5 µM), for the others: top-dose activity change, negative = inhibition, hits mostly inhibitors; AID 1508649, 2021; active = clear falling dose curves in both reporters; inconclusive = both reporters move, but less clearly or upward; inactive = either reporter flat; the % is the NLuc reporter signal; also: % is scaled to controls: 0 for no effect and ±100 for the full control effect; some results filed as inactive show a strong effect at the top dose
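Transcriptional readout in edited S16(c9) cells: two luciferases reported from the Pmp22 locus, measured in turn after 24 h compound incubation.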
Numbers without * were called inactive; ? = inconclusive; . = not tested or not shown; [ ] = dose if it differs, or a comment. Potency is read from the fitted curve at half-maximal effect. An unsorted share of the library (roughly 2.6% active in at least one column).

SMILES | HTT prom inh | PMP22 txn
N#Cc1ccccc1NC(=O)Cn1cnc2onc(-c3cccc(F)c3)c2c1=O | -1% | 8%
COc1ccc(-c2nc3ccccc3s2)cc1NC(=O)COc1cccc(C)c1 | 40%[activator] | ?
Cc1cccc(N2CCN(C(=O)c3cn(CC(C)C)c(=O)c4c3c3ccccc3n4C)CC2)c1C | -16% | ?
COCCn1ccc2c(OCC(=O)Nc3cccc(OC)c3)cccc2c1=O | 0% | -21%
Cc1cccc2nc(-c3ccc(N(C)C)cc3)c(Nc3ccc4c(c3)OCO4)n12 | 20% | ?
COc1ccc(-c2nc(C)c(CCNS(=O)(=O)c3cc(Cl)ccc3Cl)s2)cc1 | -25% | -3%
O=c1c2sc3ccccc3c2n(Cc2cccc(C(F)(F)F)c2)c(=O)n1-c1ccccc1 | -23% | -13%
COc1cc2c(cc1NC(=O)C(C)Oc1ccccc1)oc1ccccc12 (centres undefined) | 32%[activator] | 35%
CCc1ccc(C(=O)c2cn(CC(=O)Nc3cc(OC)ccc3OC)c3nc(C)ccc3c2=O)cc1 | -21% | -18%
Cc1nn2c(C)c(C(=O)N3CCN(c4ccccc4F)CC3)cnc2c1-c1ccc(F)cc1 | -7% | 13%
Cc1ccc(S(=O)(=O)c2nc(S(C)(=O)=O)sc2N(C)Cc2ccccc2)cc1 | -20% | ?
COc1ccc(S(=O)(=O)NCC(c2cccs2)S(=O)(=O)c2ccc(C)cc2)cc1F (centres undefined) | -26% | ?
CCOC(=O)c1ccc(NC(=O)CCCn2c(=O)c3cccn3c3ccccc32)cc1 | 7% | -24%
COc1ccc(-c2cc3ncc(C(=O)c4cc([N+](=O)[O-])ccc4O)cn3n2)cc1 | ? | ?
COC(=O)c1cc(NC(=O)CCc2c(C)nc3c4c(C)cc(C)nc4nn3c2C)cc(C(=O)OC)c1 | -19% | 11%
COCCCNC(=O)C(=O)Nc1c2c(nn1-c1cccc(Cl)c1)CSC2 | -34% | 22%
Nc1c(-c2nc(-c3ccc4c(c3)OCO4)cs2)c2ccccn2c1C(=O)c1ccc(Cl)cc1 | -11% | -17%
O=C(NCc1ccc(Cl)cc1)C(=O)NCC(c1ccco1)S(=O)(=O)c1cccs1 (centres undefined) | ? | -23%
COc1cc(C(=O)Nc2nonc2-c2ccc(Cl)cc2)cc(OC)c1OC | -25% | ?
O=C(NC1CCCCCC1)c1ccc2c(c1)sc1nc(-c3ccc(F)cc3)cn12 | 0% | ?
Cc1cccc(N(C)C(=O)CCS(=O)(=O)c2ccc3c(c2)oc(=O)n3C)c1 | -9%[11.5 µM] | ?
Cc1cc(N)c2cc(NC(=O)Nc3ccc4nc(C)cc(N)c4c3)ccc2n1 | -6% | .
Cc1csc2nc(COc3ccc(NC(=O)COc4ccccc4F)cc3)cc(=O)n12 | 7% | ?
O=C(c1cc2ccc3cccnc3c2[nH]1)N1CCN(c2ccccc2)CC1 | 21% | 5%
Cc1ccccc1Nc1c(-c2ccc(Br)o2)nc2ccc(Cl)cn12 | -24% | ?
COc1ccc(Nc2nnc(-c3ccc(C)c(S(N)(=O)=O)c3)c3ccccc23)cc1 | -24% | ?
Cc1cccc(Cn2cc(C(=O)Nc3ccc(S(N)(=O)=O)cc3)ccc2=O)c1 | -1% | -1%
COc1ccc(-c2oc3ncn4nc(-c5ccccc5Cl)nc4c3c2-c2ccc(OC)cc2)cc1 | 59%[activator][11.5 µM] | 16%
CCC1CCCCN1CCCNC(=O)CN1C(=O)CSc2ccc(S(=O)(=O)N3CCOCC3)cc21 (centres undefined) | -11% | -17%
Cc1cccc(N2CCN(C(=O)c3oc(=O)c4ccccc4c3-c3ccccc3)CC2C)c1 (centres undefined) | -12% | -11%
CCOc1ccccc1NC(=O)C(CC(C)C)NS(=O)(=O)c1ccc2c(c1)oc(=O)n2C (centres undefined) | -1% | -4%
COc1ccccc1NC(=O)c1c(C)cc(C)nc1SCC(=O)c1ccc(Cl)cc1 | -25% | 8%
COc1cccc2c1Oc1nc(-c3ccccc3)nc(SCC(=O)N3CCCCC3)c1C2 | -11% | -22%
COc1cccc(-n2nnc(-c3nc(-c4ccccc4F)no3)c2C)c1 | 67%[activator] | -14%
COc1cccc(CNC(=O)c2cnc3sc(N4CCCC4)nn3c2=O)c1OC | -2% | -10%
CC1=C(C(=O)OC2CCCC2)C(c2ccc(F)cc2F)CC(=O)N1 (centres undefined) | ? | -26%

Rewritten in markdown: part of the list above.
| compound | HTT prom inh | PMP22 txn |
| --- | --- | --- |
| Cc1cccc2nc(-c3ccc(N(C)C)cc3)c(Nc3ccc4c(c3)OCO4)n12 | 20% | ? |
| COc1ccc(-c2nc(C)c(CCNS(=O)(=O)c3cc(Cl)ccc3Cl)s2)cc1 | -25% | -3% |
| O=c1c2sc3ccccc3c2n(Cc2cccc(C(F)(F)F)c2)c(=O)n1-c1ccccc1 | -23% | -13% |
| COc1cc2c(cc1NC(=O)C(C)Oc1ccccc1)oc1ccccc12 (centres undefined) | 32%[activator] | 35% |
| CCc1ccc(C(=O)c2cn(CC(=O)Nc3cc(OC)ccc3OC)c3nc(C)ccc3c2=O)cc1 | -21% | -18% |
| Cc1nn2c(C)c(C(=O)N3CCN(c4ccccc4F)CC3)cnc2c1-c1ccc(F)cc1 | -7% | 13% |
| Cc1ccc(S(=O)(=O)c2nc(S(C)(=O)=O)sc2N(C)Cc2ccccc2)cc1 | -20% | ? |
| COc1ccc(S(=O)(=O)NCC(c2cccs2)S(=O)(=O)c2ccc(C)cc2)cc1F (centres undefined) | -26% | ? |
| CCOC(=O)c1ccc(NC(=O)CCCn2c(=O)c3cccn3c3ccccc32)cc1 | 7% | -24% |
| COc1ccc(-c2cc3ncc(C(=O)c4cc([N+](=O)[O-])ccc4O)cn3n2)cc1 | ? | ? |
| COC(=O)c1cc(NC(=O)CCc2c(C)nc3c4c(C)cc(C)nc4nn3c2C)cc(C(=O)OC)c1 | -19% | 11% |
| COCCCNC(=O)C(=O)Nc1c2c(nn1-c1cccc(Cl)c1)CSC2 | -34% | 22% |
| Nc1c(-c2nc(-c3ccc4c(c3)OCO4)cs2)c2ccccn2c1C(=O)c1ccc(Cl)cc1 | -11% | -17% |
| O=C(NCc1ccc(Cl)cc1)C(=O)NCC(c1ccco1)S(=O)(=O)c1cccs1 (centres undefined) | ? | -23% |
| COc1cc(C(=O)Nc2nonc2-c2ccc(Cl)cc2)cc(OC)c1OC | -25% | ? |
| O=C(NC1CCCCCC1)c1ccc2c(c1)sc1nc(-c3ccc(F)cc3)cn12 | 0% | ? |

The results go on.
SMILES | HTT prom inh | PMP22 txn
Cc1ccc(N2CC(c3nnc(Cc4ccc(F)cc4Cl)o3)CC2=O)cc1 (centres undefined) | -2% | -20%
Cc1cccc(C(=O)N(Cc2ccco2)Cc2ccccc2F)c1 | ? | 2%
CCOc1ccccc1NC(=O)N(C)CCc1c(C)nn(CC)c1C | 1% | 6%
Nc1nc(N)c(N=O)c(OCC2CCCCC2)n1 | -15% | .
CCOC(=O)c1c(C)[nH]c(C)c1S(=O)(=O)N1CCC(C(=O)Nc2cc(Cl)ccc2OC)CC1 | ? | ?
CN(C)C(=O)COC(=O)Cc1ccc(OC(=O)c2ccc(N=C(N)N)cc2)cc1 | ? | .
NC1(Cc2ccc(Cl)cc2)CCN(c2ncnc3[nH]ccc23)CC1 | ? | .
CCC(=O)C1=C(c2ccc(Cl)cc2)N(C(=O)CC)n2c(C)nnc2S1 | -23% | ?
Cc1ccc2c(c1)N(C(=O)N1CCC(C(=O)NCc3ccccc3F)CC1)CC(C)O2 (centres undefined) | ? | 7%
CCc1ccccc1NC(=O)C1COc2ccccc2C1 (centres undefined) | -9% | ?
Cc1cccc(N2CCN(C(=O)CN3C(=O)COc4ccc(S(=O)(=O)N5CCCC5)cc43)CC2)c1C | -13% | ?
CCOC(=O)c1noc2nc(C)n(CC(=O)Nc3cc(Cl)ccc3OC)c(=O)c12 | -14% | 1%
O=C(CCc1nc2cccnc2n1-c1ccccc1)Nc1ccc(Cl)c(Cl)c1 | ? | -24%
Cc1ccc(NS(=O)(=O)c2c(C)nc3sccn3c2=O)c(Cl)c1 | -14% | -8%
CCn1cc(C(=O)N2CCN(c3cc(Cl)ccc3C)CC2)c(=O)c2cc(S(=O)(=O)N3CCCC3)ccc21 | -4% | ?
Cc1cccc(-c2nc3c4ccccc4nc(N4CCN(c5ccc(F)cc5)CC4)n3n2)c1 | -9% | 1%
COc1ccc(N2CCN(CCCNC(=O)c3ccc4nc(CCc5ccccc5)oc4c3)CC2)cc1 | ? | ?
COc1ccccc1N1CCN(S(=O)(=O)c2c(C)sc3ncn(CC(=O)Nc4ccc(C(F)(F)F)cc4)c(=O)c23)CC1 | 1% | 12%
CCOc1ccc(OCC)c(Nc2nc3ccc(Cl)cc3n3cnnc23)c1 | -19% | ?
Cc1ccc(CCNc2nc3c(S(=O)(=O)c4ccccc4)nnn3c3ccsc23)cc1 | -9% | ?
O=C(NC1CC(=O)N(c2ccc(Cl)cc2)C1)c1ccc2c(c1)OCO2 (centres undefined) | 11% | -3%
Cc1ccc(Nc2nnc(-c3ccc(C)c(S(=O)(=O)N4CCCCC4)c3)c3ccccc23)cc1 | 16% | -7%
O=C(Nc1ccc2oc(-c3cccc4c(Br)cccc34)nc2c1)c1ccc(Br)cc1 | -17% | 15%
CC(C)Oc1ccc(CNC(=O)c2ccc(CS(=O)Cc3ccccc3Cl)o2)cc1 (centres undefined) | ? | ?
CCN(CC)c1ccc(NC(=O)Cn2cc3c(n2)CCCC3)c(C)c1 | -16% | ?
COc1cccc(C(=O)Nc2c(C(=O)N3CCN(c4ccc(F)cc4)CC3)oc3ccccc23)c1 | -30% | ?
CCOC(=O)C1CCN(C(=O)c2nn(-c3ccc(OC)cc3)c(=O)c3c2c2ccccc2n3C)CC1 | -11% | ?
CC(C)Oc1ccc(C(=O)NCC(c2ccc(N(C)C)cc2)N2CCc3ccccc32)cc1 (centres undefined) | -12% | ?
CCc1ccc(NC(=O)CCNS(=O)(=O)c2ccc3c(c2)CCCC(=O)N3)cc1 | -15% | -20%
CCC(C(=O)NCc1ccccc1OC)n1nc(C)n2c(cc3sccc32)c1=O (centres undefined) | -2% | -18%
CCCn1cc(S(=O)(=O)c2ccc(C)c(C)c2)c(=O)c2cc(F)c(N3CCC(C)CC3)cc21 | 1% | 9%
Cc1c(Cl)cccc1NC(=O)C1CCN(c2nc3ccccc3[nH]2)CC1 | -4% | -1%
CCc1ccc(NC(=O)c2cc(S(=O)(=O)N3CCCC3)ccc2F)cc1 | ? | -19%
Cc1ccc2c(c1)sc1nc(=O)n(-c3ccc(Cl)cc3)c(=O)n12 | -5% | 17%
Cc1cc(Nc2cccc(Br)c2)n2c(nc3ccccc32)c1C#N | -15% | 9µM*
CCC(=O)N1CCc2cc(S(=O)(=O)NC(Cc3ccccc3)C(=O)NCc3ccc(C)cc3)ccc21 (centres undefined) | -10% | -6%
CCN(CC)C(=O)Cn1c(=O)n(CC2CCC(C(=O)NC)CC2)c(=O)c2sccc21 (centres undefined) | 10% | -28%
COc1ccc(NC(=O)C2CCCN2S(=O)(=O)c2cccc3cccnc23)cc1OC (centres undefined) | -10% | -16%
Cc1ccc(NC(=O)Nc2nnc(N3CCCC3)s2)cc1C | -9% | 10%
O=C(NCCc1ccc(Cl)cc1)C1(c2cccs2)CCOCC1 | -15% | -26%
Cc1ccc(C(=O)c2cn(CC(=O)Nc3ccc(C)cc3Cl)c3nc(C)ccc3c2=O)cc1 | 1% | ?
COC(=O)c1cc(-c2ccc(OC)c(OC)c2)c2c(=O)[nH]c(=O)n(C)c2n1 | -3% | ?
O=C(CSc1nccn1C1CCCC1)Nc1cccc(F)c1 | 11% | ?
CC(=O)Nc1nonc1-c1nnc(SCC(=O)Nc2c(C)cccc2C)n1-c1ccccc1 | -14% | 5%
Cc1cc(=O)n(Cc2ccc(F)cc2Cl)c2c1c(C)nn2C | -8% | -27%
CCC(C)(C)C1CCc2c(sc(NC(=O)C3c4ccccc4Oc4ccccc43)c2C(N)=O)C1 (centres undefined) | -10% | 17%
COc1ccccc1Cc1nc2ccccc2nc1SCC(=O)Nc1cccc(Cl)c1C | -1% | -14%
COc1ccc(N2CCN(CCCNC(=O)c3nnc(Cc4ccc(F)cc4)o3)CC2)cc1 | ? | ?
CCOC(=O)c1ccc(NS(=O)(=O)c2cc(Br)cc3c2N(C(C)=O)C(C)C3)cc1 (centres undefined) | 16µM* | ?
CCN(c1cccc(C)c1)S(=O)(=O)c1cc(Br)cc2c1N(C(C)=O)C(C)C2 (centres undefined) | ? | ?
CCOc1ccc(-n2c(CC)nc3c(cnn3-c3ccc(Cl)cc3)c2=O)cc1 | ? | ?
COc1ccc(-n2ncc(C(=O)Nc3ccc(C)cc3Cl)c2C2CCN(C(=O)OC(C)(C)C)CC2)cc1 | -7% | ?
Cc1ccc2oc(-c3ccc(C)c(NC(=O)c4ccc5c(c4)OCCO5)c3)nc2c1 | -8% | ?
Cc1cccc(NS(=O)(=O)c2ccc3c(c2)[C@H]2C=CC[C@H]2[C@@H](c2ccc(F)cc2)N3)c1 | ? | ?
CCc1ccc(S(=O)(=O)c2cnc(SCC(=O)Nc3ccc(OC)cc3OC)[nH]c2=O)cc1 | 9% | -9%

Source: PubChem (National Center for Advancing Translational Sciences (NCATS))
